From PubChem BioAssay
Rce1 inhib: blocks yeast Ras-converting enzyme. Q03530. yeast membranes, quenched prenylated peptide cleavage fluorescence. calls only. actives 0.27% (n = 290,000). AID 2563;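 active = fall in fluorescence gain of 50% or more versus controls, with final raw signal at or below 3038400; inconclusive = same 50% fall but final raw signal above 3038400; inactive = fall in fluorescence gain under 50%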;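 also: plate controls were neutral control wells for no effect and wells lacking membranes for full effect; tested at 10 µM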
Env fusion inh: HIV envelope-mediated fusion inhibition. inhibition, % at 12.3 µM. HeLa-JRFL Env/CEM21 cell fusion, luciferase. actives 1.1% (n = 360,000);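 active = mean replicate inhibition score of at least 50 and every replicate individually at or above 50; inconclusive = only one of the two criteria met; inactive = mean below 50 and not all replicates reaching 50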;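 also: 0% = plate neutral controls and 100% = maraviroc near 300 nM; one replicate is shown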
UUG fidelity: alters start codon recognition fidelity in yeast; S. cerevisiae UUG-firefly luciferase reporter, luminescence/redox ratio; activity score, % at 18.7 µM; actives 0.13% (n = 350,000);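 active = replicate mean at a twofold rise or more, about +100% in these data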;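 also: firefly luciferase made from a UUG start codon reports start codon fidelity; reporter light over untreated wells divided by growth signal over untreated wells; some hits fall short of that in this replicate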
PABP FP inh: blocks human PABP binding to poly(A) RNA; P11940; actives 1% (n = 290,000); inhibition, % at 35 µM; fluorescence polarization; AID 2014;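 active = 50% or more with normal probe brightness, or confirmed in later tests; inconclusive = above 50% with abnormal brightness, or retests that disagree; inactive = below 50% or failed in later tests; about a fifth of its hits are not listed in these tables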;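 also: calls also rest on retests at 20 µM and on dose response follow-up; controls were probe without protein and protein plus probe with vehicle; some compounds called inactive have numbers as strong as hits; many hits fall short of the cut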
Target sequence (P11940 whole entry, looked up): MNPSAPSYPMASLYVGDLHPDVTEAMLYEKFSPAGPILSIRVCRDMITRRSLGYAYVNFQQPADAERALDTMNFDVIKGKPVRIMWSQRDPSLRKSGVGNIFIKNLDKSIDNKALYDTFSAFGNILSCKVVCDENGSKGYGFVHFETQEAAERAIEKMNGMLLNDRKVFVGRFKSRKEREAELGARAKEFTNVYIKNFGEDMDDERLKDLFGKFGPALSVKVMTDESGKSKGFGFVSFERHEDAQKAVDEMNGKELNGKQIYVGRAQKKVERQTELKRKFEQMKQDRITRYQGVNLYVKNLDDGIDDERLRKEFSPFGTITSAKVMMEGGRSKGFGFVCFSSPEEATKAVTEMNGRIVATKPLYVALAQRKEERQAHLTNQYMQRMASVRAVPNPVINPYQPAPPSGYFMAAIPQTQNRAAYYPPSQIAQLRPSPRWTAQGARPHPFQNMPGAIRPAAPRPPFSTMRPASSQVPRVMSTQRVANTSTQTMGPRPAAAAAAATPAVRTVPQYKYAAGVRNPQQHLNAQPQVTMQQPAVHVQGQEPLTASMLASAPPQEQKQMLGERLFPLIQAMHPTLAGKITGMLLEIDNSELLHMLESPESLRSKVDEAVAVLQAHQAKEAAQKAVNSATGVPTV
eIF4H inh: inhibitors of RNA binding by human eIF4H; eIF4H fluorescence polarization binding assay; actives 0.94% (n = 290,000); Q15056; inhibition, % at 35 µM; AID 2012;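 active = 50% or more with normal probe brightness, or confirmed in later tests; inconclusive = above 50% with abnormal brightness, or retests that disagree; inactive = below 50% or failed in later tests; about a fifth of its hits are not listed in these tables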;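 also: calls also rest on retests at 20 µM and on dose response follow-up; 0% = protein and probe with vehicle and 100% = probe without protein; strong numbers were not always called active; many hits fall short of the cut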
CSC inhib: blocks cancer stem cells | cancer stem cell-like cells viability, luminescence | inhibition, % at 7.5 µM | actives 1.1% (n = 300,000) | AID 2717;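 active = mean at 75% or more and at least half the replicates too; inconclusive = mean and replicates disagree; tested in HMLE shEcad cells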;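 also: 0% = median of negative and 100% = median of positive control wells; the first replicate is given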
MT1-MMP act inh: blocks activation of human MT1-MMP; actives 0.061% (n = 360,000); AID 651647; HT1080 RFP-PRO-GFP cells, GFP/RFP ratio fluorescence, overnight; percent of plate control window, DMSO zero; GFP/RFP ratio change, % at 20 µM;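 active = GFP/RFP ratio change of at least 30% with cell ATP level not reduced by more than half and red fluorescence within 50% of control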; also: strong numbers were not always called active
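Assay system – RFP-PRO-GFP reporter HT1080 cells · Compound dosing – single dose of 20 µM compound, 1% DMSO final · Incubation – overnight compound exposure at 37 °C · Measure – GFP/RFP fluorescence ratio · Benchmarks – DMSO wells and RFP-L50D-GFP cells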
eIF4H inh retest: recorded beside eIF4H inh, whose call it bears; inhibition, %; compound at 20 µM; confirmation average;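 mean of two retest wells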
PABP FP inh retest: second read-out of PABP FP inh, no call of its own (marks repeat the call); inhibition, %; compound at 20 µM; confirmation repeats;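 mean of two retest wells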
MT1-MMP act inh RFP: recorded beside MT1-MMP act inh, whose call it bears; RFP signal change, %; measured here: RFP expression control read;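 0 = vehicle wells; hits needed this value within 50% of zero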
* hit, by the source's call; i = inactive; ? = inconclusive; / = no result given; & = joins results of further samples; [ ] = remark or other dose. Rows were taken by chance; about 3% have a hit in one of these screens.

SMILES | Rce1 inhib | Env fusion inh | UUG fidelity | PABP FP inh | eIF4H inh | CSC inhib | MT1-MMP act inh | MT1-MMP act inh RFP | others
O=C(Nc1cccc(F)c1)c1cc(S(=O)(=O)N2CCOCC2)ccc1N1CCCC1 | / | / | -4 | / | / | 17 | 0 | 0
COc1ccc(CCNC(=O)C2CCN(Cc3nc(-c4ccccc4F)oc3C)CC2)cc1OC | i | -48 | 2 | -8 | 7 | -8 | 1 | -9
Cc1ccc(C(=O)Nc2cccc(N3C(=O)C4CCC(C)CC4C3=O)c2)cc1 (stereo not drawn) | i | 2 | -14 | 20 | -4 | -4 | -1 | -2
O=C(COc1ccccc1)NCCn1ccc2ccccc21 | i | / | 1 | -2 | -7 | -3 | -6 | -1
O=C(N/N=C\c1ccc(S(=O)(=O)O)o1)c1ccc2c(c1)OCO2 | i | 1 | -29 | 10 | -5 | -12 | 1 | -3
CCN(CC)C(=O)CSC1=C(C#N)C(c2cccs2)C=C(C)N1 (stereo not drawn) | i | / | -6 | 10 | 11 | -1 | -4 | -2
CCOC(=O)NC(=O)CSc1nnnn1-c1ccccc1 | i | / | / | -2 | -4 | 1 | -4 | 4
COc1ccc(OC)c(NC(=O)CSc2nc3[nH]c(=O)cc(O)c3s2)c1 | / | / | 7 | / | / | 9 | -3 | 6
CC(=O)c1ccc(N(CC(=O)Nc2cc(C)on2)S(=O)(=O)c2ccc(C)cc2)cc1 | / | -82 | -8 | / | / | -4 | 3 | 1
CN(C(=O)COC(=O)CCCc1c[nH]c2ccccc12)c1c(N)n(Cc2ccccc2)c(=O)[nH]c1=O | / | / | -20 | / | / | -12 | -2 | 1
COc1cccc(C2C(C(C)=O)=C(O)C(=O)N2Cc2ccco2)c1 (stereo not drawn) | i | 2 | / | -4 | -7 | 9 | 7 | 7
CNNC(=S)Nc1cccc(SC)c1 | i | 5 | -27 | -1 | -4 | 7 | -1 | 1
COc1ccccc1CCC(=O)Nc1cccc(S(=O)(=O)N2CCCC2)c1 | i | -12 | 1 | 6 | 3 | -6 | -1 | 2
Cc1ccc(S(=O)(=O)CCC(=O)OCC(=O)c2cc(C)ccc2C)cc1 | i | -3 | / | / | / | -12 | 3 | 6
COc1ccc(N(CC(=O)NCc2cccnc2)S(=O)(=O)c2ccccc2[N+](=O)[O-])c(OC)c1 | i | -3 | / | 2 | -6 | -1 | -1 | 1

Of the compounds above, three contain four or more nitrogen atoms.
SMILES | Rce1 inhib | Env fusion inh | UUG fidelity | PABP FP inh | eIF4H inh | CSC inhib | MT1-MMP act inh | MT1-MMP act inh RFP | others
CCOC(=O)NC(=O)CSc1nnnn1-c1ccccc1 | i | / | / | -2 | -4 | 1 | -4 | 4
CN(C(=O)COC(=O)CCCc1c[nH]c2ccccc12)c1c(N)n(Cc2ccccc2)c(=O)[nH]c1=O | / | / | -20 | / | / | -12 | -2 | 1
COc1ccc(N(CC(=O)NCc2cccnc2)S(=O)(=O)c2ccccc2[N+](=O)[O-])c(OC)c1 | i | -3 | / | 2 | -6 | -1 | -1 | 1

Other compounds follow:
SMILES | Rce1 inhib | Env fusion inh | UUG fidelity | PABP FP inh | eIF4H inh | CSC inhib | MT1-MMP act inh | MT1-MMP act inh RFP | others
CCOC(=O)c1nn(-c2ccccc2)c(=O)cc1SC(C)C | i | / | -19 | -5 | 9 | -5 | -4 | -1
c1ccc2c(C[n+]3csc4ccccc43)cccc2c1 | i | -26 | -12 | 24 | 2 | 10 | -7 | -3
COc1ccc(S(=O)(=O)N(C)C[C@@H]2Oc3c(NS(C)(=O)=O)cccc3C(=O)N([C@@H](C)CO)C[C@H]2C)cc1 | / | 6[16.7 µM] | 1&-14 | / | / | / | 4 | 6
CCOc1cc(C(=O)N2CCC(CC3CC(c4ccc(Cl)cc4)=NO3)(C(=O)NCC3CCCCC3)CC2)cc(OCC)c1OCC (stereo not drawn) | i | -6 | -16 | 2 | 1 | 9 | -6 | -10
Cc1ccccc1Nc1nc(N)nc(COC(=O)c2ccccc2)n1 | i | -6 | / | -3 | -4 | 0 | 0 | 1
Nc1cc(=O)[nH]c(SCC(=O)Nc2ccc(F)c(Cl)c2)n1 | i | 2 | -4 | 1 | -1 | -6 | 1 | -1
Cc1cccc2cc(COC(=O)c3cccc([N+](=O)[O-])c3)c(=O)[nH]c12 | i | / | / | -4 | 1 | 3 | / | /
COC(Cc1ccccc1N1CCCC1=O)OC | i | 11 | -2 | 0 | 5 | 9 | 2 | 4
O=C(CNC(=O)c1ccc(Br)cc1)OCC(=O)c1ccccc1 | i | -20 | 3 | 0 | -10 | -5 | 0 | 4
C/C(=N\NS(=O)(=O)c1ccc(C)cc1)c1cc2ccccc2oc1=O | i | -8 | -2 | -4 | 3 | 3 | -3 | -3
CCCSC1=C(C#N)C(c2ccc(O)c(OC)c2)CC(=O)N1 (stereo not drawn) | i | -16 | -17 | 2 | -1 | -10 | 5 | 8
CCN1C(=O)CCC(C(=O)O)C1c1ccc(OC)cc1 (stereo not drawn) | i | 8 | -14 | -8 | -8 | -9 | 2 | 3
CC(C)N1C(=O)CC2(CC[N+](C)(CCOC(=O)C(c3ccccc3)c3ccccc3)CC2)C1=O (stereo not drawn) | i | / | / | 26 | 17 | -5 | 1 | 6
Cc1cc(C)nc(Nc2ncc(O)n2-c2ccc(C)c(C)c2)n1 | i | -77 | -26 | -2 | 1 | 4 | 13 | 8
COc1ccc(S(=O)(=O)NCC(=O)Nc2ccc3c(c2)OCCO3)cc1OC | i | 8 | -4 | 7 | -7 | 6 | -3 | -2
CCOC(=O)c1c(C)[nH]c(C)c1C(=O)COC(=O)COc1ccc(Cl)c(C)c1 | / | -1 | 12 | / | / | / | 0 | 3
CCS(=O)(=O)N1CCN(C(=O)CCC2CCCC2)CC1 | i | 0 | -18 | ? | 4 | -1 | 1 | 2
CCO[C@H]1OC(C(=O)NC2CC2)=C[C@@H](c2ccc(C(F)(F)F)cc2)[C@@H]1CCCO | i | 9[16.7 µM] | 1&-7 | 1 | 1 | -1 | 1 | 6
Cc1ccc(NC(=O)COc2ccc(/C=C3/SC(=Nc4ccccc4)N(Cc4cccnc4)C3=O)cc2)cc1 | i | / | / | 79* | 58* | 25 | 0 | -1
c1ccc2c(c1)CCCc1cc(NCCN3CCOCC3)nnc1-2 | / | 2 | -11 | / | / | -2 | 8 | 8
CCC(C)Sc1ccc([C@@H]2[C@@H]3C(=O)N(CC)C(=O)[C@@H]3[C@]3(C(=O)OC)CCCCN23)cc1 (stereo partly drawn) | / | 38 | -8 | / | / | / | -2 | -5
Cn1nc(C(=O)Nc2ccccc2N2CCCC2)c2ccccc2c1=O | i | 4 | -12 | 2 | -12 | 8 | 1 | -3
O=C(Cc1cnc2ncnn2c1)N1CCc2c([nH]c3ccccc23)C1c1ccccc1F (stereo not drawn) | i | 13 | -7 | -10 | -7 | -12 | -1 | 0
O=c1c2ccccc2c(=O)n(-c2ccccc2)n1-c1ccccc1 | / | -1 | -9 | / | / | / | 1 | 3
COc1ccccc1/C=C\C(=O)NCC(=O)N/N=C/c1cccc(OC)c1O | i | 9 | -8 | -3 | 18 | 72 | 4 | 1
Cc1ccccc1CN(C)CC(=O)Nc1cccc(S(=O)(=O)N(C)c2ccccc2)c1 | i | 23 | / | -18 | -5 | -2 | 1 | -1
O=C(Nc1ccccc1-c1nc2ccccc2s1)c1ccc(Br)o1 | i | 16 | -13 | 3 | -6 | 8 | -2 | 0
CCn1c(SC(C)C)nnc1-c1c[nH]c2ccccc12 | i | -47 | -17 | -11 | -14 | -6 | 5 | 2
O=C(Nc1cccnc1)C(Cc1ccccc1)n1cccc1 (stereo not drawn) | i | -71 | -4 | -1 | 8 | -1 | -3 | 4
Cc1cc(Br)ccc1S(=O)(=O)n1ccnc1C | i | -6 | -7 | 5 | -10 | -1 | -1 | 3

Arranged by molecular weight (highest first): part of the list above
SMILES | Rce1 inhib | Env fusion inh | UUG fidelity | PABP FP inh | eIF4H inh | CSC inhib | MT1-MMP act inh | MT1-MMP act inh RFP | others
Cc1ccc(NC(=O)COc2ccc(/C=C3/SC(=Nc4ccccc4)N(Cc4cccnc4)C3=O)cc2)cc1 | i | / | / | 79* | 58* | 25 | 0 | -1
Cc1ccccc1CN(C)CC(=O)Nc1cccc(S(=O)(=O)N(C)c2ccccc2)c1 | i | 23 | / | -18 | -5 | -2 | 1 | -1
CCn1c(SC(C)C)nnc1-c1c[nH]c2ccccc12 | i | -47 | -17 | -11 | -14 | -6 | 5 | 2

(listing goes on)
SMILES | Rce1 inhib | Env fusion inh | UUG fidelity | PABP FP inh | eIF4H inh | CSC inhib | MT1-MMP act inh | MT1-MMP act inh RFP | others
COc1ccc(C2C(C(=O)c3ccccc3)=C(C)Nc3nc4ccccc4n32)cc1OC (stereo not drawn) | i | -2 | -10 | -7 | 5 | -1 | 0 | 4
Cc1cccc(C)c1C(O)c1ncc(-c2ccccc2C(F)(F)F)[nH]1 (stereo not drawn) | / | 3 | -9 | / | / | / | 2 | 5
O=C(CSc1ncnc2c1oc1ccccc12)Nc1ccccc1F | i | -3 | -15 | -7 | -2 | -15 | 2 | -1
Cc1cc(C)nc(SCC(=O)Nc2cccc(S(=O)(=O)N(C)C)c2)n1 | i | 11 | 5 | 0 | -4 | -6 | 2 | -8
Cc1snc(SCc2ccc(F)cc2)c1C#N | i | 6 | -14 | 3 | 4 | 8 | 1 | 0
CCOC(=O)N1C=CC=C[C@@H]2[C@@H](N3C(=O)c4ccccc4C3=O)C(=O)N21 | i | -65 | / | 93* | 0 | -6 | -1 | 2 | eIF4H inh retest=19;PABP FP inh retest=60*
Cc1ccc(C)c(C(=O)COC(=O)CN2C(=O)C3C4C=CC(C4)C3C2=O)c1 (stereo not drawn) | / | 5 | -7 | 4 | 5 | 1 | 4 | -2
CC(C)CC1C(=O)N(Cc2cn(CCC3OCCO3)nn2)CCS(=O)(=O)N1Cc1ccc(-c2cccc(CO)c2)cc1 (stereo not drawn) | / | -40 | -4 | / | / | / | 3 | 3
COCCNc1ccc(S(=O)(=O)N2CCCC2)cn1 | i | -12 | -13 | 46 | -2 | -2 | 1 | -1
C#CCOCCOCCOCCNc1nc(N2CCN(C(=O)[C@H]([C@@H](C)CC)n3cc(CCCCN)nn3)CC2)nc(N2CCN(C(=O)[C@H](CCCCN)n3cc(CCCC)nn3)CC2)n1 | / | 11 | 4 | / | / | -2 | 2 | -1
COc1ccc(NS(=O)(=O)c2cc(NC(=O)c3cnc(C)cn3)ccc2N2CCCC2)cc1 | i | -78 | -24 | -5 | -4 | 13 | 2 | 2
Cc1ccc(C(=O)CCS(=O)(=O)c2ccc(F)cc2)cc1 | i | -63 | -74 | -5 | -2 | 0 | 0 | 3
C[C@@H](OC(=O)c1[nH]cnc1C(=O)N1CCc2ccccc2C1)c1ccccc1 | / | -5 | -10 | / | / | -15 | 3 | 1
CCC(NC(=S)NCc1ccc(F)cc1)c1ccccc1 (stereo not drawn) | i | 5 | -31 | -8 | 8 | -7 | -1 | -4
COc1cccc(C(=O)N2CCN(CCCc3ccccc3)CC2)c1OC | / | -10 | / | 10 | 8 | 12 | 3 | -5
N#C/C(=C(/O)c1ccc(F)cc1)c1nc2ccccc2s1 | i | -25 | / | 1 | -4 | -3 | -8 | -28
CC(C)(C)C(=O)c1sc2nc(-c3cccs3)cc(C(F)(F)F)c2c1N | i | -72 | -18 | 8 | 2 | 5 | -213 | 3
